From PubChem
Autofluor counter: flagged as autofluorescent in microsphere protease counterscreen; compound autofluorescence counterscreen, microsphere flow cytometry; hits give high values; fluorescence intensity (concentration not given with the values); 3.1% of 360,000 active;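 active = at least 3 SD above the mean of all compounds, about 16000 in these data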;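 also: 100 nL of 1 mM stock went into each well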
Mtb hypoxia inh: Mtb hypoxia fluorescent reporter inhibition | M. tuberculosis hypoxia-regulated fluorescent reporter, fluorescence | fluorescence inhibition, % (concentration not given with the values) | 0.1% of 300,000 active | AID 1159583;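 active = 35 to 45% if threefold the growth effect, above 45% if 1.5-fold the growth effect; inactive = the rest, general growth blockers included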;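 also: wells of about 50 µL received 100 nL stock; 0% = vehicle wells and 100% = reference inhibitor wells; whole bacteria with a GFP reporter of the hypoxia response; strong numbers were not always called active; many hits fall short of the cut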
Sa RN4220 lethal: S. aureus RN4220 growth inhibition. inhibition, % (no concentration beside the values). 0.33% of 330,000 active. OD600, 16 h. AID 1259311;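 active = z-score of -3 or lower and OD600 up to 0.18 on both plates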;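 also: plate controls were untreated cells for no effect and reference antibiotic for full effect; stock transfer was 100 nL into about 80 µL; one replicate is shown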
ugtP null kill: kills S. aureus RN4220 lacking UgtP; S. aureus RN4220 ugtP deletion, OD600 growth, 16 h; some inactives read as strong as hits; growth inhibition, % (concentration not given with the values); 0.54% of 330,000 active; AID 1259309;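 active = z-score under -3 and OD600 up to 0.15 on both plates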;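 also: plate controls were untreated wells for no effect and antibiotic for full effect; wells of about 80 µL received 100 nL stock; the first replicate is given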
BJeLR viability: BJeLR cell viability loss | BJeLR (HRASV12) viability, CellTiter-Glo ATP luminescence, 48 h; reference of the scale not given here | inhibition, % (no concentration beside the values) | 0.17% of 300,000 active | AID 1554;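 active = replicate mean above 50%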;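 also: 50 nL library stock added to about 25 µL; numbers are from one replicate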
PrP 5UTR inh: suppresses PrP 5' UTR mRNA reporter expression; cell-based PrP 5' UTR mRNA reporter, plate reader; inhibition, % (test concentration not listed); 0.35% of 340,000 active;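 active = every replicate at 50% or more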;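 also: 0 = median of the neutral control wells; tested in H4 reporter cells; numbers are from one replicate; inactives centre near -14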
Mtb hypoxia inh growth: recorded beside Mtb hypoxia inh, whose call it bears; growth inhibition, %; measured here: M. tuberculosis growth (absorbance);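 0% = vehicle and 100% = reference antibiotic; read after six days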
Active calls of the source: *; x = no result given.

Keys: A = Autofluor counter; B = Mtb hypoxia inh; C = Mtb hypoxia inh growth; D = Sa RN4220 lethal; E = ugtP null kill; F = BJeLR viability; G = PrP 5UTR inh
> COc1ccccc1CN1CC(C(=O)N2CCCCCCC2)CCC1=O (stereo unspecified)
  A: 6237	B: -4.9	C: 4.9	D: 1.0	E: 2.1	F: 1.5	G: -5.9
> COc1cccc(N2CCN(C(=O)CSc3ccc(F)cc3)CC2)c1
  A: 3195	B: -1.6	C: 13.1	D: 7.5	E: 3.1	F: x	G: -15.1
> O=C(C1CCN(Cc2ccccc2)CC1)N1CCCC1
  A: 4161	B: -63.9	C: 20.0	D: 4.3	E: -0.8	F: 1.0	G: -17.3
> CCOc1ccc(NC(=O)N2CCC(NC(=O)C(Cc3ccc(OC)c(OC)c3)NC(C)=O)CC2)cc1 (stereo unspecified)
  A: 4182	B: 7.4	C: 0.6	D: -0.8	E: 1.7	F: 6.4	G: -14.4
> Cc1cc(C(=O)N2CCN(c3ccc([N+](=O)[O-])cc3)CC2)no1
  A: 2027	B: 16.2	C: 9.8	D: 5.6	E: 8.4	F: -8.7	G: -10.9
> CN1C(=O)CSc2ccc(NC(=O)N3CCN(c4ccccn4)CC3)cc21
  A: 2372	B: -0.2	C: -3.1	D: -2.6	E: 6.8	F: 1.8	G: -3.8
> CCCCNC(=O)N1CCc2[nH]c3ccccc3c2C1
  A: 3146	B: -7.0	C: -11.6	D: -3.4	E: 4.2	F: 12.2	G: 0.2
> CCSc1ncc(Cl)c(C(=O)Nc2cc(C)ccc2C)n1
  A: 4763	B: 3.5	C: 0.6	D: 5.8	E: 4.7	F: -4.9	G: -2.2
> COC/C=C/C1=CC2=CC(=O)C(C)(OC(=O)c3cnc4ccccc4n3)C(=O)C2=CN1CCN1CCOCC1 (stereo unspecified)
  A: 4092	B: x	C: x	D: x	E: x	F: 0.7	G: -9.5
> Cc1ccsc1/C=N/NC(=O)CN1CCN(S(=O)(=O)c2ccc(Br)cc2)CC1
  A: 2335	B: x	C: x	D: x	E: x	F: -2.4	G: -17.6
> COc1cccc(NC(=S)NN=C2CCCCCC2)c1
  A: 3521	B: -0.8	C: -3.8	D: -4.8	E: -8.2	F: 6.1	G: -64.6
> CCc1ccc(NC(=O)/C(C#N)=C/c2cc3ccc(C)cc3nc2N2CCOCC2)cc1
  A: 2200	B: 15.6	C: 7.4	D: 6.5	E: -2.8	F: 5.6	G: -17.8
> Nc1nonc1-n1nnc(C(=O)NN=Cc2ccccn2)c1CNc1ccccc1
  A: x	B: 2.8	C: 0.9	D: 0.4	E: 1.1	F: x	G: x
> CC(=NNc1nc(C)c(C)s1)c1ccc([N+](=O)[O-])cc1
  A: x	B: x	C: x	D: 7.4	E: 5.2	F: x	G: x
> COC(=O)c1ccc(C(=O)NCCCCO)cc1
  A: 2250	B: 16.3	C: 2.3	D: 5.0	E: 2.4	F: -9.5	G: -13.5
> CCN1CCN(S(=O)(=O)c2ccc(Cl)c(C(=O)N(C)C(c3ccccc3)c3ccccc3)c2)CC1
  A: 5542	B: 1.9	C: 9.8	D: -2.3	E: 2.5	F: -2.1	G: -11.3
> Cc1ccc(/C=C2\SC(=S)N(CCCC(=O)Nc3ccccc3C(=O)O)C2=O)cc1
  A: 4965	B: 14.7	C: 6.3	D: 27.1	E: 19.5	F: -1.7	G: 5.8
> Cc1ccc(NC(=O)COC(=O)C2CCC2)cc1S(=O)(=O)N1CCOCC1
  A: 4340	B: -7.2	C: 4.7	D: 2.9	E: -2.9	F: x	G: -4.3
> N#Cc1c(-c2ccc(F)cc2)noc1N
  A: 4171	B: -14.9	C: -7.9	D: 3.2	E: 5.1	F: -6.1	G: -9.2
> O=C(CCN1CCN(C(c2ccccc2)c2ccccc2)CC1)NN=Cc1ccc(O)cc1O
  A: x	B: 5.4	C: -3.1	D: -0.2	E: 5.1	F: x	G: x
> CCOC(=O)N1CCN(c2nnc(-c3ccccc3)c3ccccc23)CC1
  A: 3088	B: 0.9	C: -3.0	D: -2.9	E: -1.0	F: -8.0	G: -18.1
> Cc1ccc(C=NNC(=O)c2ccccn2)s1
  A: x	B: 2.9	C: 0.1	D: 6.2	E: -4.9	F: x	G: x
> NCCCCCC(=O)Nc1ccncc1
  A: 6134	B: 7.2	C: 12.6	D: 2.3	E: 3.6	F: 5.0	G: -5.4
> S=C(Nc1ccc(Br)cc1)NC1CCCCC1
  A: 2382	B: x	C: x	D: 4.3	E: -9.0	F: 5.4	G: -22.8
> CN1CC(=O)Nc2ccc([N+](=O)[O-])cc2C1=O
  A: 3512	B: -10.0	C: -5.0	D: -0.9	E: -0.9	F: 0.1	G: -4.8

Part of the list above, set out differently.
O=C(C1CCN(Cc2ccccc2)CC1)N1CCCC1
- Autofluor counter: 4161
- Mtb hypoxia inh: -63.9
- Mtb hypoxia inh growth: 20.0
- Sa RN4220 lethal: 4.3
- ugtP null kill: -0.8
- BJeLR viability: 1.0
- PrP 5UTR inh: -17.3
CCOc1ccc(NC(=O)N2CCC(NC(=O)C(Cc3ccc(OC)c(OC)c3)NC(C)=O)CC2)cc1 (stereo unspecified)
- Autofluor counter: 4182
- Mtb hypoxia inh: 7.4
- Mtb hypoxia inh growth: 0.6
- Sa RN4220 lethal: -0.8
- ugtP null kill: 1.7
- BJeLR viability: 6.4
- PrP 5UTR inh: -14.4
Cc1cc(C(=O)N2CCN(c3ccc([N+](=O)[O-])cc3)CC2)no1
- Autofluor counter: 2027
- Mtb hypoxia inh: 16.2
- Mtb hypoxia inh growth: 9.8
- Sa RN4220 lethal: 5.6
- ugtP null kill: 8.4
- BJeLR viability: -8.7
- PrP 5UTR inh: -10.9
CN1C(=O)CSc2ccc(NC(=O)N3CCN(c4ccccn4)CC3)cc21
- Autofluor counter: 2372
- Mtb hypoxia inh: -0.2
- Mtb hypoxia inh growth: -3.1
- Sa RN4220 lethal: -2.6
- ugtP null kill: 6.8
- BJeLR viability: 1.8
- PrP 5UTR inh: -3.8

Continued:
Keys: A = Autofluor counter; B = Mtb hypoxia inh; C = Mtb hypoxia inh growth; D = Sa RN4220 lethal; E = ugtP null kill; F = BJeLR viability; G = PrP 5UTR inh
> COc1cccc(NC(=O)CN(C)C(=O)CSc2ncnc3sc(C)c(C)c23)c1
  A: 5807	B: -3.4	C: 3.9	D: 0.0	E: -4.9	F: -13.4	G: 9.2
> O=C(Nc1ccc2oc(=O)ccc2c1)c1ccc(-c2cccc(Cl)c2)o1
  A: 6154	B: -1.7	C: -3.1	D: 3.1	E: 4.1	F: -10.6	G: -18.9
> O=C(Cc1ccccc1)NCC(=O)Nc1ccccc1Br
  A: 2951	B: -1.8	C: 8.6	D: 0.5	E: 2.7	F: -6.2	G: -17.4
> COc1ccc(-c2noc(N3CCC(C(=O)NCCCN4CCCCC4)CC3)n2)cc1
  A: 6460	B: 1.3	C: 1.7	D: 2.9	E: 0.8	F: 12.9	G: -24.3
> O=C(Cn1cc([N+](=O)[O-])cn1)Nc1nccs1
  A: 4847	B: -2.5	C: -6.9	D: 3.1	E: 9.8	F: 9.7	G: -32.3
> COc1ccc(CNC(=O)c2csnn2)cc1
  A: 8264	B: 18.3	C: 5.0	D: 0.8	E: 3.8	F: -21.0	G: -26.8
> COC(=O)[C@@H]1C[C@@]2(O)[C@@H](O)[C@@H](O)[C@@H](O)C[C@H]2N1C/C=C/c1ccccc1
  A: 3785	B: x	C: x	D: x	E: x	F: 8.4	G: -6.8
> O=C(O)c1cc(Cl)c2c(c1)[C@@H]1C=CC[C@@H]1[C@H](c1ccc(S(=O)(=O)N3CCOCC3)cc1)N2
  A: 2128	B: 2.6	C: 6.5	D: 20.5	E: 9.5	F: 5.1	G: -10.2
> COC(=O)c1sc2ccccc2c1NC(=O)c1ccc(S(=O)(=O)N2CCCCC2C)cc1 (stereo unspecified)
  A: 2014	B: -4.3	C: 12.0	D: -2.6	E: -7.6	F: 0.7	G: 1.2
> O=C(c1noc2c1CCCC2)N1CCc2ccccc2C1
  A: 3011	B: 22.0	C: 14.6	D: 6.4	E: 7.2	F: 2.9	G: -60.2
> Cc1cc(C)nc(N/N=C/c2c(CO)cnc(C)c2O)n1
  A: 3969	B: x	C: x	D: x	E: x	F: -1.2	G: -24.1
> Cn1c(Cl)c(/C=N/OC(=O)c2ccccc2Cl)c2ccccc21
  A: 2223	B: x	C: x	D: x	E: x	F: -12.0	G: -3.8
> COc1ccc(/C(O)=C2/C(=O)C(=O)N(c3ccccn3)C2c2cccc(Cl)c2)cc1 (stereo unspecified)
  A: 2942	B: -0.6	C: -1.1	D: 3.6	E: -1.8	F: -0.4	G: -5.0
> CC(C)[C@@H]1COC(c2cccc(C3=N[C@H](C(C)C)CO3)c2)=N1
  A: 3594	B: x	C: x	D: x	E: x	F: 6.0	G: -34.8

Reprinted at random: four compounds from above, in no set order.
Keys: A = Autofluor counter; B = Mtb hypoxia inh; C = Mtb hypoxia inh growth; D = Sa RN4220 lethal; E = ugtP null kill; F = BJeLR viability; G = PrP 5UTR inh
> COC(=O)[C@@H]1C[C@@]2(O)[C@@H](O)[C@@H](O)[C@@H](O)C[C@H]2N1C/C=C/c1ccccc1
  A: 3785	B: x	C: x	D: x	E: x	F: 8.4	G: -6.8
> CCN1CCN(S(=O)(=O)c2ccc(Cl)c(C(=O)N(C)C(c3ccccc3)c3ccccc3)c2)CC1
  A: 5542	B: 1.9	C: 9.8	D: -2.3	E: 2.5	F: -2.1	G: -11.3
> COc1ccc(-c2noc(N3CCC(C(=O)NCCCN4CCCCC4)CC3)n2)cc1
  A: 6460	B: 1.3	C: 1.7	D: 2.9	E: 0.8	F: 12.9	G: -24.3
> Cc1cc(C(=O)N2CCN(c3ccc([N+](=O)[O-])cc3)CC2)no1
  A: 2027	B: 16.2	C: 9.8	D: 5.6	E: 8.4	F: -8.7	G: -10.9
